NPYLR7 agonist = activates Aedes aegypti NPYLR7 receptor; HEK293T NPYLR7/Galpha15, GCaMP6s calcium fluorescence; activation, % at 10 µM; 270,000 compounds, 0.15% hits; AID 1259423; in the data active = activation above about 40%;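 also: 0% = vehicle and 100% = reference agonist at the receptor; some compounds past the cut are filed as inactive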
NPYLR7 agonist max-min = also measured in NPYLR7 agonist; calls as there; activation, %; measured here: Max-Min RFU normalised activation; some inactives read as strong as hits;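 span of the calcium signal over five minutes; 0% = vehicle and 100% = native peptide agonist; compound fluorescence can raise it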
Starred values were filed as active, the others as inactive; & = joins results of further samples. An excerpt. The share of hits here may be higher or lower than overall.

Start of the listing, in advance:
How did CC(O)CN(CC(C)O)C(=O)/C=C/c1cn(S(=O)(=O)c2cccc3ccccc23)c2ccccc12 (stereo not drawn) do in these assays?
NPYLR7 agonist: -10.4; NPYLR7 agonist max-min: -15.0

What do the screens show for `COc1ccc2cc(CN(C)c3ccc(C#N)cn3)ccc2c1`?
NPYLR7 agonist: -3.5; NPYLR7 agonist max-min: -5.5

How did O=C(NC1CCCN(c2ncccn2)C1)c1sccc1Cl (stereo not drawn) do in these assays?
NPYLR7 agonist: 4.5; NPYLR7 agonist max-min: 3.1

What do the screens show for `CCC(=O)Oc1ccc(/C(CC)=C(\CC)c2ccc(OC(=O)CC)cc2)cc1`?
NPYLR7 agonist: -25.5; NPYLR7 agonist max-min: -32.3

What do the screens show for `COC(=O)c1cccc(S(=O)(=O)N(CCC#N)Cc2ccco2)c1`?
NPYLR7 agonist: 6.3; NPYLR7 agonist max-min: 0.2

Results for Cc1nnc(SCCCNC(=O)c2cccc(-n3cccn3)c2)s1 ?
NPYLR7 agonist: 10.4; NPYLR7 agonist max-min: 1.1

Results for CCOC(=O)c1nn(-c2ccc(F)cc2)c(=O)cc1OS(=O)(=O)c1cc(C)c(Cl)cc1C ?
NPYLR7 agonist: 1.4; NPYLR7 agonist max-min: 4.0

Results, from the first entry:
How did CC(O)CN(CC(C)O)C(=O)/C=C/c1cn(S(=O)(=O)c2cccc3ccccc23)c2ccccc12 (stereo not drawn) do in these assays?
NPYLR7 agonist: -10.4; NPYLR7 agonist max-min: -15.0

What do the screens show for `COc1ccc2cc(CN(C)c3ccc(C#N)cn3)ccc2c1`?
NPYLR7 agonist: -3.5; NPYLR7 agonist max-min: -5.5

How did O=C(NC1CCCN(c2ncccn2)C1)c1sccc1Cl (stereo not drawn) do in these assays?
NPYLR7 agonist: 4.5; NPYLR7 agonist max-min: 3.1

What do the screens show for `CCC(=O)Oc1ccc(/C(CC)=C(\CC)c2ccc(OC(=O)CC)cc2)cc1`?
NPYLR7 agonist: -25.5; NPYLR7 agonist max-min: -32.3

What do the screens show for `COC(=O)c1cccc(S(=O)(=O)N(CCC#N)Cc2ccco2)c1`?
NPYLR7 agonist: 6.3; NPYLR7 agonist max-min: 0.2

Results for Cc1nnc(SCCCNC(=O)c2cccc(-n3cccn3)c2)s1 ?
NPYLR7 agonist: 10.4; NPYLR7 agonist max-min: 1.1

Results for CCOC(=O)c1nn(-c2ccc(F)cc2)c(=O)cc1OS(=O)(=O)c1cc(C)c(Cl)cc1C ?
NPYLR7 agonist: 1.4; NPYLR7 agonist max-min: 4.0

How did CCOC(=O)CNC(=O)Cn1cnc2c(nnn2Cc2ccccc2)c1=O do in these assays?
NPYLR7 agonist: 7.2; NPYLR7 agonist max-min: 5.0

How did Cc1ccc2nc(CCNC(=O)c3cc(=O)[nH]c4ccccc34)[nH]c2c1 do in these assays?
NPYLR7 agonist: 3.1; NPYLR7 agonist max-min: -0.1

How did Fc1cnccc1N1CCN(Cc2ccccc2OC(F)F)CC1 do in these assays?
NPYLR7 agonist: -0.9; NPYLR7 agonist max-min: -0.5

How did O=C(NC1CCc2c(O)cccc21)C1CC1c1cccnc1 (stereo not drawn) do in these assays?
NPYLR7 agonist: 7.6; NPYLR7 agonist max-min: 1.2

Results for O=C(c1cnc2ccccc2n1)N1CCCCC1CCO (stereo not drawn) ?
NPYLR7 agonist: 1.8; NPYLR7 agonist max-min: 0.5

What do the screens show for `O=C(Nc1ccc2[nH]cc(CCN3CCN(c4cccc(C(F)(F)F)c4)CC3)c2c1)C(F)(F)C(F)(F)C(F)(F)F`?
NPYLR7 agonist: 2.5; NPYLR7 agonist max-min: -2.1

How did O=C(/C=C/c1ccc2c(c1)OCO2)NC(c1ccccc1)c1ccc(Cl)cc1 (stereo not drawn) do in these assays?
NPYLR7 agonist: -4.1; NPYLR7 agonist max-min: -15.0

How did CC(C)Sc1nnc(CNC(=O)C23CC4CC(CC(C4)C2)C3)n1Cc1ccccc1 do in these assays?
NPYLR7 agonist: -1.3; NPYLR7 agonist max-min: -5.5

What do the screens show for `COc1cccc(C(=O)N(Cc2csc(COc3c(OC)cccc3OC)n2)C2CC2)c1`?
NPYLR7 agonist: 2.2; NPYLR7 agonist max-min: 15.9

How did CCN(CC(=O)Nc1cc(-c2ccccc2)nn1-c1ccc(Cl)c(Cl)c1)C(=O)Nc1ccccc1F do in these assays?
NPYLR7 agonist: -5.5; NPYLR7 agonist max-min: 5.0

How did CCCCC(=O)N(C)c1c(C)nc2ccc(C(=O)Nc3ccc(OC)c(OC)c3)cn12 do in these assays?
NPYLR7 agonist: 4.0; NPYLR7 agonist max-min: -7.3

Results for CCOC(=O)C1(Cc2cccc(OC)c2)CCN(Cc2ccc(C)s2)CC1 ?
NPYLR7 agonist: 3.8&-5.8; NPYLR7 agonist max-min: 4.9&-4.5

What do the screens show for `CC(=O)NCCNc1nc2cc(-c3cscc3C)sc2c(=O)n1C`?
NPYLR7 agonist: 8.3; NPYLR7 agonist max-min: 3.5

How did O=C(Cn1ncc(Cl)c(Cl)c1=O)Nc1ccc2ccccc2c1 do in these assays?
NPYLR7 agonist: -1.3; NPYLR7 agonist max-min: -2.7

What do the screens show for `CC(C)OCCCNc1ncnc2[nH]ncc12`?
NPYLR7 agonist: 4.0; NPYLR7 agonist max-min: 3.2

What do the screens show for `CCc1nc(-c2ccccc2)nc(N2CCN(C(=O)C3CC3)CC2)c1Cc1cc(C)ccc1C`?
NPYLR7 agonist: -5.3; NPYLR7 agonist max-min: 1.7

How did CC1=CCC2C3OC(c4ccccc43)C2C1 (stereo not drawn) do in these assays?
NPYLR7 agonist: 0.4; NPYLR7 agonist max-min: 1.7

How did CCC1SC(=NN=Cc2cccc(OS(=O)(=O)c3ccc(C)cc3)c2)NC1=O (stereo not drawn) do in these assays?
NPYLR7 agonist: -5.2; NPYLR7 agonist max-min: -7.5

How did CCSCCOC(=O)C1=C(C)N(C)C(=O)NC1c1cc(Cl)c(O)c(OC)c1 (stereo not drawn) do in these assays?
NPYLR7 agonist: -3.4; NPYLR7 agonist max-min: -6.4

What do the screens show for `CCCCSc1nc2c(c(=O)n(C)c(=O)n2C)n1Cc1ccccc1`?
NPYLR7 agonist: 14.3; NPYLR7 agonist max-min: 2.4

How did O=C(CSc1nc(=O)n(Cc2cccnc2)c2c1CCC2)N1CCc2ccccc21 do in these assays?
NPYLR7 agonist: 11.1; NPYLR7 agonist max-min: 9.0

Results for CCCn1c(=O)c2c(nc3n(CC4CCCO4)c(C)cn23)n(C)c1=O (stereo not drawn) ?
NPYLR7 agonist: 6.7; NPYLR7 agonist max-min: 2.9

What do the screens show for `O=S(=O)(c1ccc2c(c1)CCN2)N1CCCC1`?
NPYLR7 agonist: -1.5; NPYLR7 agonist max-min: -3.1

What do the screens show for `COc1ccc(OC)c(-c2ccc(=O)n(CCNC(=O)Nc3ccccc3)n2)c1`?
NPYLR7 agonist: 0.9; NPYLR7 agonist max-min: 12.3

Results for Cc1cnc(C(=O)NCC2CCN(Cc3cc(C(C)C)no3)C2)cn1 (stereo not drawn) ?
NPYLR7 agonist: 0.0; NPYLR7 agonist max-min: 0.1

Results for CC(Nc1nc(CCN)nc2ccccc12)c1cnn(-c2ccc(F)cc2)c1 (stereo not drawn) ?
NPYLR7 agonist: 10.4; NPYLR7 agonist max-min: 7.0

What do the screens show for `COc1ccc(C(=O)N(C)C)cc1S(=O)(=O)N1CCOCC1`?
NPYLR7 agonist: -10.8; NPYLR7 agonist max-min: -9.3

What do the screens show for `Fc1cc(Br)ccc1CSc1nnc(-c2cc(-c3ccccc3)nc3ccccc23)n1CC1CCCO1` (stereo not drawn)?
NPYLR7 agonist: -6.6; NPYLR7 agonist max-min: -5.9

How did CCCn1c(=O)c(C(=O)Nc2nnc(CC)s2)c(O)c2ccccc21 do in these assays?
NPYLR7 agonist: -4.5; NPYLR7 agonist max-min: -9.5

What do the screens show for `COC(=O)C(CC(C)C)OC(=O)c1ccc(N2CCNC2=O)cc1` (stereo not drawn)?
NPYLR7 agonist: -3.3; NPYLR7 agonist max-min: -7.7

How did Cc1noc(C)c1CN(C)C(=O)C1(NC(=O)OC(C)(C)C)CCC(C)CC1 (stereo not drawn) do in these assays?
NPYLR7 agonist: -0.6; NPYLR7 agonist max-min: 1.3

What do the screens show for `CC1CCCCC1Nc1ccc(S(=O)(=O)N2CCOCC2)cn1` (stereo not drawn)?
NPYLR7 agonist: -23.8; NPYLR7 agonist max-min: -25.5

How did CCOC(=O)c1cc(-c2ccc(N3CCN(C(=O)c4cc(C)on4)CC3)cc2)n(-c2cccc(F)c2)n1 do in these assays?
NPYLR7 agonist: 26.2; NPYLR7 agonist max-min: 13.5

What do the screens show for `O=C(Cn1nc(-c2ccccc2)c2sc(N3CCCC3)nc2c1=O)N1CCc2ccccc21`?
NPYLR7 agonist: -3.7; NPYLR7 agonist max-min: -8.9

How did CN(C)CCNC(=O)CC1CSc2nc3c(cnn3-c3ccc(F)cc3)c(=O)n21 (stereo not drawn) do in these assays?
NPYLR7 agonist: 3.4; NPYLR7 agonist max-min: 0.6

Results for COc1ccc(-c2nccn2CCCN2CCCC2=O)c2ccccc12 ?
NPYLR7 agonist: -0.2; NPYLR7 agonist max-min: -2.1

Results for COc1ccc(C2c3cccn3-c3ccccc3N2C(=O)CN(C(=O)c2ccc(F)cc2)C2CC2)cc1 (stereo not drawn) ?
NPYLR7 agonist: 2.6; NPYLR7 agonist max-min: 12.8

How did CCOCc1ccc(CNC(=O)CN2CCN(C)CC2C)cc1 (stereo not drawn) do in these assays?
NPYLR7 agonist: 9.4; NPYLR7 agonist max-min: 8.0

What do the screens show for `CC1CCCN(C(=O)c2ccc(S(=O)(=O)N3CCCCC3)cc2)C1` (stereo not drawn)?
NPYLR7 agonist: 4.1; NPYLR7 agonist max-min: 2.2

How did Cc1ccc(Cc2nsc(N3CCN(C(=O)c4ccc([N+](=O)[O-])cc4Cl)C(C)C3)n2)cc1 (stereo not drawn) do in these assays?
NPYLR7 agonist: -10.0; NPYLR7 agonist max-min: -15.6

What do the screens show for `O=C(COC(=O)c1ccc(N2C(=O)c3cccc4cccc(c34)C2=O)cc1)c1ccc(F)c(F)c1`?
NPYLR7 agonist: -9.8; NPYLR7 agonist max-min: -13.7

What do the screens show for `COCC(=O)Nc1c(I)c(C(=O)NCC(O)CO)c(I)c(C(=O)N(C)CC(O)CO)c1I` (stereo not drawn)?
NPYLR7 agonist: 1.1; NPYLR7 agonist max-min: -2.6

Results for Cc1cc(-n2cnnc2C2CCOCC2)n(C)n1 ?
NPYLR7 agonist: -3.4; NPYLR7 agonist max-min: -5.2

How did C(=C\c1ccccc1)/CN1CCCc2c1[nH]c1ccccc21 do in these assays?
NPYLR7 agonist: -12.1; NPYLR7 agonist max-min: -17.7

How did O=C1OC2(CCCCC2)OC(=O)C1=CNc1ccc2ccccc2c1 do in these assays?
NPYLR7 agonist: 8.4; NPYLR7 agonist max-min: 11.7

How did CCc1nc2ccc(C(=O)Nc3ccc(NC(C)=O)cc3)cn2c1N(C)C(=O)COc1ccccc1 do in these assays?
NPYLR7 agonist: 9.0; NPYLR7 agonist max-min: 5.7

Results for c1ccc(C2c3cccn3CCCN2Cc2ccccn2)cc1 (stereo not drawn) ?
NPYLR7 agonist: 8.8; NPYLR7 agonist max-min: 8.2

How did Cc1ccc(C(c2c(O)cc(C)n(Cc3ccccc3)c2=O)N2CCN(CCO)CC2)cc1 (stereo not drawn) do in these assays?
NPYLR7 agonist: 2.1; NPYLR7 agonist max-min: 0.5

Results for CN1C(=O)NC(c2ccc(F)cc2)C2=C1CN(Cc1ccc(F)cc1)C2=O (stereo not drawn) ?
NPYLR7 agonist: -2.1; NPYLR7 agonist max-min: -3.3

What do the screens show for `Cc1ccc2c(c1)CCCN2C(=O)CN1CCCC1c1nonc1C` (stereo not drawn)?
NPYLR7 agonist: -2.3; NPYLR7 agonist max-min: -2.4

Results for c1cnc(Nc2nc(-c3ccncc3)cs2)nc1 ?
NPYLR7 agonist: 6.8; NPYLR7 agonist max-min: -0.2

How did Cc1cc(CNc2cccc(S(=O)(=O)N3CCCC3)c2)no1 do in these assays?
NPYLR7 agonist: 6.6; NPYLR7 agonist max-min: -0.5

What do the screens show for `COc1ccc(CCNC(=O)Cn2nc(C)c3cnn(-c4ccccc4)c3c2=O)cc1OC`?
NPYLR7 agonist: 7.3; NPYLR7 agonist max-min: 1.4

Results for COCCn1c(=O)c2c(nc3n2CCCN3CCc2ccc(OC)c(OC)c2)n(C)c1=O ?
NPYLR7 agonist: 4.0; NPYLR7 agonist max-min: 2.0

What do the screens show for `O=C(CSc1nc(Cl)cc(N2CCN(c3ccccc3F)CC2)n1)N1CCC(Cc2ccccc2)CC1`?
NPYLR7 agonist: -5.5; NPYLR7 agonist max-min: 1.0

How did CC1C=CC(C)N1C(=O)c1cc(N2CCOCC2)nc2ccccc12 (stereo not drawn) do in these assays?
NPYLR7 agonist: 3.6; NPYLR7 agonist max-min: 0.8

What do the screens show for `CCC(NC(=O)c1c[nH]c(=O)[nH]1)c1ccccn1` (stereo not drawn)?
NPYLR7 agonist: 19.1; NPYLR7 agonist max-min: 7.7

What do the screens show for `O=C(COc1ccc2ccccc2c1)OCc1cc(=O)c(O)co1`?
NPYLR7 agonist: 7.2; NPYLR7 agonist max-min: 5.2

Results for Cc1cc(NC2CC(C)(C)NC(C)(C)C2)n2ncnc2c1 ?
NPYLR7 agonist: -1.5; NPYLR7 agonist max-min: -4.1

Results for COCCNC(=O)c1sc(=O)n(Cc2ccc(-c3ccccc3)cc2)c1C ?
NPYLR7 agonist: 3.9; NPYLR7 agonist max-min: -0.2

What do the screens show for `COc1cccc(C(=O)Nn2cnc3c(cnn3-c3ccc(C)c(C)c3)c2=O)c1OC`?
NPYLR7 agonist: 0.5; NPYLR7 agonist max-min: -3.6

What do the screens show for `COc1ccc(S(=O)(=O)N2CCOCC2)cc1C(=O)N1CC(=O)Nc2cc(C)cnc21`?
NPYLR7 agonist: 1.0; NPYLR7 agonist max-min: -3.2

What do the screens show for `O=C(NC1CCCCCCC1)c1cnn(-c2ccc(Cl)nn2)c1C(F)(F)F`?
NPYLR7 agonist: -1.5; NPYLR7 agonist max-min: -0.8

How did COc1ncccc1-c1nn(C)c2ccc(C)cc12 do in these assays?
NPYLR7 agonist: -0.6; NPYLR7 agonist max-min: -2.8

Screens as filed in PubChem BioAssay.
